Beta2AR agonist = agonists of human beta-2 adrenergic receptor inducing internalization; P07550; Am2.2-beta2AR cells, FAP receptor internalization, flow cytometry; reference of the scale not given here; response, % (test concentration not listed); 340,000 tested, 0.43% active; AID 504454;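 active = response above a set limit, near 3 SD of response in nonfluorescent compounds, cut at about 42% in these data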;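 note: stock transfer was 100 nL into about 11 µL; a reference agonist was the positive control; negative values mostly stem from fluorescent compounds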
Target sequence (P07550 whole entry, looked up): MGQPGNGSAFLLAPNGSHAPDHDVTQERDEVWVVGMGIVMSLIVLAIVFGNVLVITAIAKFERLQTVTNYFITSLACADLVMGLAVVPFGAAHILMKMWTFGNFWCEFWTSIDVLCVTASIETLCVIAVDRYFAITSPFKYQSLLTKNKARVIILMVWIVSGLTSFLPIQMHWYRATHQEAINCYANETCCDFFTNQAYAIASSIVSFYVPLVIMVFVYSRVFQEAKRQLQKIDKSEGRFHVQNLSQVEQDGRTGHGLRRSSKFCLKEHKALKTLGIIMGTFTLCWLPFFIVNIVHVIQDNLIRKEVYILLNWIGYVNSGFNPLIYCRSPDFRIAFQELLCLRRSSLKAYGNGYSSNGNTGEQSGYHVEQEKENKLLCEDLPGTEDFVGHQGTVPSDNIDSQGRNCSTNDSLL
LANA-H2A inh = blocks KSHV LANA binding to histone H2A/H2B | 320,000 tested, 0.6% active | Q9QR71 | cell-free LANA-H2A/H2B peptide, fluorescence polarization | AID 2629 | inhibition, % (test concentration not listed); in the data active = inhibition mostly above about 10%, no sharp cut-off; inactive = mostly below about 6.7%;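 note: stock transfer was 7.5 nL into about 10 µL; 0% = median of vehicle wells and 100% = median of positive control wells; one replicate is shown; the record names a cut of 25% in any replicate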
Ecoli growth = E. coli growth inhibition | Escherichia coli growth, OD600, 23 h; hits give low values | AID 1053175 | 330,000 tested, 0.21% active | OD600 absorbance (concentration not given with the values);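 active = OD600 absorbance below the run mean of sample wells minus 3.6 SD, in any replicate, cut at about 0.56 in these data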;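 note: stock transfer was 300 nL into about 60 µL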
UCH37 inh = human UCH37 deubiquitinating enzyme inhibition; Q9Y5K5; purified proteasome/UCH37, Ub-AMC cleavage fluorescence; inhibition, % (concentration not given with the values); 330,000 tested, 0.33% active;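 active = mean of two replicates above 20%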;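 note: 0% = compound-free wells with enzyme and 100% = wells lacking proteasome; stock transfer was 100 nL into about 20 µL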
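Reagent: Ub-AMC substrate; assay system: Proteasome-associated human UCH37 deubiquitinase; controls: no-proteasome and no-compound wells; read-out: % inhibition of Ub-AMC cleavage fluorescence; timing: 30 min preincubation with enzyme, 25 min cleavage at room temperature; signal: AMC fluorescence from Ub-AMC cleavage, excitation 355 nm, emission 460 nm; buffer or medium: Tris-HCl pH 7.4 plus ovalbumin, ATP-MgCl2, DTT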
Bfl-1 A1 inh = inhibitors of the anti-apoptotic protein A1, read as caspase activation | caspase activation, % (test concentration not listed) | MEF A1-2A-BIM cells, Caspase-Glo 3/7 luminescence, 3 h; percent of clofoctol response, vehicle zero | 330,000 tested, 0.066% active;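 active = over half of replicate activation scores above 10%, or exactly half above 10 with the replicate mean above 10; inconclusive = replicate mean below 10 yet half the replicates above 10; inactive = over half of replicates below 10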;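 note: wells of about 30 µL received 50 nL stock; many hits fall short of the cut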
HNF4A DNA FP = change in binding of human HNF4 alpha to DNA. activity change, % at 10 µM. 360,000 tested, 0.3% active. HNF4a-FITC DNA binding, fluorescence polarization, 1 h. P41235. AID 1224865; in the data active = activity change above about 30%, passing the limit was not always enough;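 note: controls were the assay level and a saturating level of protein; the project sought stronger binding though the title names inhibitors; some compounds called inactive have numbers as strong as hits; positive values seem to mean higher polarization but the record does not say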
Target sequence (P41235 whole entry, looked up): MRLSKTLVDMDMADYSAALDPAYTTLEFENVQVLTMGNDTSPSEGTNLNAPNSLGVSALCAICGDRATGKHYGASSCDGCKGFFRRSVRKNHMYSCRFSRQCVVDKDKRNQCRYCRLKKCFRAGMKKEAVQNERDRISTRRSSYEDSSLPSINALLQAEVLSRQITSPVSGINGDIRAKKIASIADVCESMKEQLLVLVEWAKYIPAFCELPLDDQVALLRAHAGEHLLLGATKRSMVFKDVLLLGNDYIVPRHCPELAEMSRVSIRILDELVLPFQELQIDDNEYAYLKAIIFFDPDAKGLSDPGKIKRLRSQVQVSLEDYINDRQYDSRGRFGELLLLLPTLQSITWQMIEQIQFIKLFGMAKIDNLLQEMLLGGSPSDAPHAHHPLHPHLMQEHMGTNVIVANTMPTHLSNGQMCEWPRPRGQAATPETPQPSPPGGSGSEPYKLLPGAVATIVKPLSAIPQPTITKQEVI
Vif TR-FRET = inhibitors of Vif binding to APOBEC3G peptide, primary screen, biochemical, TR-FRET, GST-Vif 1-94, biotin-A3G peptide, dose response retest (AID 1117319) | TR-FRET GST-Vif / biotin-A3G peptide binding; higher % means a stronger effect; test concentration not given here; strong numbers were not always called active | inhibition, %; hits with a dose series show IC50 in µM | 260,000 tested, 0.57% active;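 active = above the screen mean plus three standard deviations and confirmed in dose response; inconclusive = results disagree or hit not tested in dose response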;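 note: Vif residues 1-94 fused to GST binding biotinylated APOBEC3G peptide 110-148; 0% = full assay without inhibitor and 100% = GST in place of GST-Vif; retest series ran down from 100 µM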
Numbers without * were called inactive; ? = inconclusive; . = not tested or not shown; + = active, no number. Hits appear at their usual frequency (roughly 2.1% active in at least one column).

SMILES	Beta2AR agonist	LANA-H2A inh	Ecoli growth	UCH37 inh	Bfl-1 A1 inh	HNF4A DNA FP	Vif TR-FRET
CC(C)N(C)CCOC(=O)/C=C/c1ccccc1	4	+	0.66	5.4	0.8	0.7	.
Cc1cc(C)cc(N(CC(=O)NC2CCCC2)C(=O)CCC(=O)Nc2nc(C)cs2)c1	4	-6.6	0.67	1.4	0.5	4.4	-11%
C/C(CC(=O)Nc1ccc2c(c1)OCCO2)=N\NC(=O)c1ccccn1	-4	-1.7	.	.	0.4	-4.1	-1%
O=C1CCNc2ccc(-c3ccccc3)cc21	-2	4.9	0.65	-24	0.4	-96	6%
N#C/C(=C\c1ccc2c(c1)OCCO2)C(=O)Nc1nccs1	18	-0.1	0.67	6.5	-0.3	4.6	.
COc1ccc(C(=O)N2CCCC(C(=O)N3CCN(c4ccccc4)CC3)C2)cc1 (stereo unspecified)	-6	8.7	0.7	5.7	-0.8	-3.5	4%
Oc1ccc(/C=N/N2CCCCC2)c(O)c1O	1	1.9	.	.	0.7	-2.5	19µM*
CC(=O)c1sc(NC(=O)C2CSC3(C)CCC(=O)N23)nc1-c1ccccc1 (stereo unspecified)	-2	2.0	0.69	4.3	-0.1	1.1	-14%
O=C1CCCC(O)=C1N=Nc1ccc(S(=O)(=O)N2CCOCC2)cc1	-3	-4.7	0.72	14	-0.1	-5.1	6.7µM*
COc1ccccc1CNC(=O)CC1Sc2ccccc2NC1=O (stereo unspecified)	0	-0.4	0.71	4.4	1.2	-0.3	-1%
Cn1c(=O)c2c(nc(Cl)n2Cc2ccncc2)n(C)c1=O	0	1.8	0.68	3.6	-0.2	-0.6	2%
COCCN1C(=O)c2ccccc2C(C(=O)NCCCN2CCCC2=O)C1c1c[nH]c2ccccc12 (stereo unspecified)	-4	.	0.75	1.5	.	-1.2	13%
Cc1ccc2c(c1)nnn2C1CCN(C(=O)c2ccccc2F)CC1	-1	-1.1	0.67	-4.1	0.2	0.7	1%
Cc1ccc(CN2C(=O)C(C)Oc3ccccc32)cc1 (stereo unspecified)	-3	-0.9	0.69	3.9	-0.7	-1.5	3%
O=C(COC(=O)c1c2c(nc3ccccc13)/C(=C\c1ccco1)CC2)NC1CCCC1	-9	.	0.72	-31	.	-37	3.7µM*
CC(C)(C)c1ccc2c(c1)N(CC(=O)N1CCOCC1)C(=O)CO2	-9	0.3	0.69	-2.0	0.3	4.0	2%
COc1cccc(-c2ccc(NC(=O)C3CCCN(Cc4cc(C)[nH]n4)C3)cc2)c1 (stereo unspecified)	3	-4.0	.	.	3.0	-1.1	.
COc1ccc(C2=NOC(C(=O)Nc3ccc4c(c3)OCO4)C2)cc1 (stereo unspecified)	14	0.2	0.62	2.9	-0.3	-1.7	-4%
CCOc1ccc(OCCCC(=O)NCCOc2ccccc2OC)cc1	1	2.4	0.7	0.4	0.5	-1.1	.
O=C(C[n+]1ccccc1)N/N=C/c1ccccc1Cl	-8	-1.8	.	.	-0.2	-0.4	4%
NC(=O)c1sc2nc(N3CCOCC3)c3c(c2c1N)CCCC3	1	-0.6	0.75	-119	-0.1	-6.0	5%
C(=C\c1nccc2c1[nH]c1ccccc12)/c1ccccc1	2	5.0	.	.	-0.6	0.4	-4%
CCCCNS(=O)(=O)c1ccc2nc(SCC(=O)Nc3ccccc3Cl)[nH]c2c1	1	-1.6	0.69	3.8	-0.5	0.2	.
O=C1[C@H](Cc2ccccc2)NCCCC[C@H](c2ccc(Cl)cc2)N1Cc1ccccc1	-2	.	.	1.3	.	-2.3	.
CCOC(=O)C(CC)n1nc(C)n2c(cc3sccc32)c1=O (stereo unspecified)	6	7.9	0.73	3.7	0.1	4.5	.
COc1ccc(CN2CC(C(=O)NCCC3=CCCCC3)CC2=O)cc1 (stereo unspecified)	5	-2.5	0.68	5.5	0.1	11	5%
CCn1c(SCC(=O)Nc2ccc(C)cc2)nc(O)cc1=O	0	-1.5	0.66	6.9	1.6	-1.4	-5%
OC(Cn1cncn1)(c1ccc(F)cc1)c1ccc(Cl)cc1 (stereo unspecified)	-6	0.0	0.67	4.2	0.3	-1.7	.
Cc1ccc(Sc2ncccc2C(=O)O)cc1	-2	5.6	0.68	1.7	0.3	1.6	2%
CCCC(=O)NC(=S)Nc1ccc(S(=O)(=O)N2CCc3ccccc32)cc1	10	3.7	0.68	2.2	1.3	4.9	.
COc1ccccc1C(=O)N/C(=C\c1ccc(Br)cc1)C(=O)NCC(=O)O	-10	7.8	0.64	0.2	-0.8	-2.3	.
Cc1cccc(C(=O)NNC(=O)c2ccc(NC(=O)C(C)(C)C)cc2)c1	8	8.6	0.7	-0.3	0.1	-1.6	2%
CCN(CC)C(=O)[C@H]1CC(CC(=O)NCCCOC)C(=O)N2CCc3c([nH]c4ccccc34)[C@]12C (stereo partly specified)	-5	5.8	0.72	1.1	0.0	-2.0	-6%
O=C(CSCc1ccccc1)N1CCN(C(=O)c2ccco2)CC1	-5	-2.7	0.66	3.3	0.6	3.6	18%
Cc1ccc(C)c(NC(=O)CCNS(=O)(=O)c2ccc3[nH]c(=O)oc3c2)c1	0	-4.9	0.68	1.6	-0.8	-2.6	-3%
COc1ccccc1N1CCN(C2CCCC(C)C2)CC1 (stereo unspecified)	-4	-1.8	0.67	0.2	-0.4	3.0	7%
O=C1c2cccc([N+](=O)[O-])c2C(=O)N1c1cccnc1	-1	-3.9	0.63	3.9	-0.9	-1.9	10%
COc1ccccc1C(=O)Nc1cccc(S(=O)(=O)N2CCCC2)c1	-5	3.3	0.63	0.6	0.8	-2.6	-5%
O=C(NC1CCCC1)C(c1ccccc1)N(C(=O)c1ccno1)c1cccnc1 (stereo unspecified)	-9	0.2	0.74	3.0	2.7	-3.1	-2%
Cn1c(=O)c2[nH]c(CCCCCc3nc4ccccc4[nH]3)nc2n(C)c1=O	.	.	0.67	0.7	.	-3.3	.
CCC(C)NS(=O)(=O)c1cc2c3c(c1)CCC(=O)N3CCC2 (stereo unspecified)	3	-1.2	0.69	1.8	0.1	3.7	-2%
CCCCC(C(=O)NC1CCCC1)N(C(=O)c1snc(C(N)=O)c1N)c1ccc(OCC)cc1 (stereo unspecified)	-6	-3.6	0.67	-12	0.2	-1.9	.
CC1CN(S(=O)(=O)c2ccc(F)cc2)C(C)N1C(=O)N1CCOCC1 (stereo unspecified)	0	3.1	0.67	2.6	0.5	5.3	.
Cc1ccc2ncnc(NCCC(=O)O)c2c1	4	-1.6	0.67	-0.7	2.3	0.0	2%
CCOC(=O)c1sc(NC(=O)c2ccccc2)cc1C	0	-2.3	0.69	-52	-7.4	-3.8	-3%
Cc1cc(C)cc(OCC(=O)OCc2cc([N+](=O)[O-])cc3c2OCOC3)c1	6	0.7	0.62	0.9	-0.1	-2.9	2%
CCCCSC1(SCCCC)N=C(N)C2(C#N)C(c3ccccc3)NC(C)=CC12C#N (stereo unspecified)	11	.	0.77	-1.9	0.4	3.4	4%
O=C(O)COc1ccccc1/C=N/NC(=O)c1cc(-c2ccc(Cl)cc2)nc2ccccc12	-16	-15	.	.	-1.6	-2.6	3%
Cn1c(SCC(=O)NC(=O)Cc2ccccc2)nnc1-c1ccc(F)cc1	-3	3.8	0.66	-1.1	0.1	6.1	-5%
COc1cc(NC2=CC(=O)CC(C)(C)C2)cc(OC)c1OC	2	2.8	0.64	6.7	0.1	4.5	3%
COc1cc(OC)cc(C(=O)N/N=C(\C)CC(=O)Nc2ccccn2)c1	-3	1.7	.	.	-0.2	1.0	.
Cn1cc(CN(Cc2ccccn2)C[C@@H]2CCC(=O)N2)c(-c2ccccc2F)n1	-2	4.0	0.65	-1.0	-0.8	-2.1	28%
Cc1ccc(NC(=O)CCS(=O)(=O)c2ccc3nc(C)sc3c2)cc1	0	-4.3	.	.	0.9	6.7	.
CCC(Sc1nccn1C)C(=O)Nc1ccc(Cl)cn1 (stereo unspecified)	-1	-5.4	0.68	-1.1	0.1	2.2	.
N#Cc1c2c(c(NCCOCCO)n3c1nc1ccccc13)CCCC2	-12	-4.3	0.67	-42	-0.8	-3.2	7%
COC(=O)c1ccccc1N=Nc1c(N)[nH][nH]c1=O	9	2.6	.	.	2.1	8.0	5%
COC(=O)c1cc(C(=O)OCC(=O)NCc2cccs2)cc([N+](=O)[O-])c1	1	-0.5	0.66	0.8	0.1	-4.0	-5%
NC(=O)Cn1c(S(=O)(=O)Cc2ccccc2)nc2ccccc21	-6	-2.4	0.68	1.2	0.5	-1.3	.
CCOc1ccc(NC(=S)NC(=O)/C=C/c2ccc(OC)c(OC)c2)c([N+](=O)[O-])c1	.	0.8	0.77	8.9	?	-0.9	-3%
CCOC(=O)C1CCN(C2=NC(=O)/C(=C/c3ccc(OC)c(OC)c3)S2)CC1	8	-2.2	0.69	0.7	0.5	-2.9	2%

In the list so far, 3 have a cyano group:
SMILES	Beta2AR agonist	LANA-H2A inh	Ecoli growth	UCH37 inh	Bfl-1 A1 inh	HNF4A DNA FP	Vif TR-FRET
N#C/C(=C\c1ccc2c(c1)OCCO2)C(=O)Nc1nccs1	18	-0.1	0.67	6.5	-0.3	4.6	.
CCCCSC1(SCCCC)N=C(N)C2(C#N)C(c3ccccc3)NC(C)=CC12C#N (stereo unspecified)	11	.	0.77	-1.9	0.4	3.4	4%
N#Cc1c2c(c(NCCOCCO)n3c1nc1ccccc13)CCCC2	-12	-4.3	0.67	-42	-0.8	-3.2	7%

Some of these compounds in order of the Vif TR-FRET value, descending:
Compound	Beta2AR agonist	LANA-H2A inh	UCH37 inh	HNF4A DNA FP	Vif TR-FRET
Oc1ccc(/C=N/N2CCCCC2)c(O)c1O	1	1.9	.	-2.5	19µM*
O=C1CCCC(O)=C1N=Nc1ccc(S(=O)(=O)N2CCOCC2)cc1	-3	-4.7	14	-5.1	6.7µM*
O=C(COC(=O)c1c2c(nc3ccccc13)/C(=C\c1ccco1)CC2)NC1CCCC1	-9	.	-31	-37	3.7µM*

Other entries:
SMILES	Beta2AR agonist	LANA-H2A inh	Ecoli growth	UCH37 inh	Bfl-1 A1 inh	HNF4A DNA FP	Vif TR-FRET
COc1cccc(NC(=O)CSc2nnc3cc(C)nc(N)n23)c1	-2	8.2	0.69	3.4	0.8	-3.4	0%
CN(C(=O)CC1C(=O)NCCN1Cc1ccc(F)c(F)c1)C1CCOCC1 (stereo unspecified)	8	-0.1	0.69	-5.0	-0.9	-0.9	18%
O=C(NN=C1CCN(Cc2ccccc2)CC1)c1cc(Br)ccc1O	5	2.4	0.64	-98	-0.1	1.6	0%
O=C(CSc1ccc(F)cc1)NCCc1ccc(Cl)cc1	-3	0.7	0.63	-1.2	0.1	3.4	.
Cc1ccccc1/C(N)=N/OC(=O)c1cccs1	0	.	0.64	2.0	0.1	0.8	0%
CCCCc1ccc(/C(C)=N/NC(=O)C2CCCC2)cc1	-3	0.8	.	.	0.0	-0.2	5%
O=C(COC(=O)CNC(=O)c1ccccc1)NC1CCCC1	13	.	0.67	4.5	.	1.3	-7%
S=C(CN1CCCC1=S)NCCc1ccccc1	17	-5.1	0.68	0.9	0.6	-3.4	4%
CN(CC(=O)Nc1cccc(F)c1)C(=O)c1ccccc1CCc1ccccc1	8	7.3	0.68	1.0	0.3	0.4	-1%
NC(=S)N=Nc1c(O)cc(O)c2[nH]c(=O)ccc12	0	.	.	.	.	-33	8µM*
CCOc1cccc(SCc2noc(C(=O)NC(C)C)c2C(=O)O)c1	.	-0.2	.	1.4	-0.2	.	2%
CSC1=NCCN1C(=O)c1c(F)cccc1F	-5	-5.0	0.7	0.6	0.3	-2.2	-1%
